High-throughput results as filed in PubChem BioAssay.
Cruzain noTriton – cruzain (T. cruzi) inhibition without detergent. P25779. purified cruzain, Z-FR-AMC fluorescence, no detergent. Potency, µM, inactives show max response, negative = inhibition, actives largely listed as inhibitors. 200,000 compounds, 2.3% hits; active means well fitted curve in the direction sought with a large enough effect; inconclusive means small, poorly fitted or top-dose-only effect, or another doubt; inactive means no such curve, though single readings can be large; an effect the other way counts as inactive or inconclusive;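 further: plate controls were enzyme without inhibitor for no effect and buffer without enzyme for full effect; nearly all actives have a fitted effect of over 40% in size; top concentration of the series not given in the record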
Target sequence (P25779 123-467 limits assumed): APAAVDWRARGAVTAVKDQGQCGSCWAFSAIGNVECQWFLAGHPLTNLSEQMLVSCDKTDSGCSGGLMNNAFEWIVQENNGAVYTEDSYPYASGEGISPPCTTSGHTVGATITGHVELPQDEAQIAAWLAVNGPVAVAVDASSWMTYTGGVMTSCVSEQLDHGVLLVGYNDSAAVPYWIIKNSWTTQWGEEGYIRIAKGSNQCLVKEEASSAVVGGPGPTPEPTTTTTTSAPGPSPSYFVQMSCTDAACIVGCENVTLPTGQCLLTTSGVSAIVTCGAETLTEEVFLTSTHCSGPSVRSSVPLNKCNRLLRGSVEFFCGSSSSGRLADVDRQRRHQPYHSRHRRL
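Detergent-free condition (0.00005% Triton X-100) in acetate buffer pH 5.5 with DTT. 1.5 nM enzyme and compound were pre-mixed 15 min, then 2 uM Z-FR-AMC substrate added; reaction progress from fluorescence change between first and third reads (60 s).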
Marburg entry inh – blocks Marburg virus binding to or entry into cells | Potency, µM (highest dose often 37.8 µM), without a hit: at the highest dose activity change, negative = inhibition, actives largely listed as inhibitors | Marburg virus pseudotyped entry inhibition, cell reporter; control for the full effect not named in the record; about a third of the inactives were read at about 46 µM | 300,000 compounds, 1.8% hits | AID 540276; active = well fitted inhibition curve with a large enough effect; inconclusive = small, poorly fitted or top-dose-only effect, or effect the other way; inactive = flat fitted curve, though single readings scatter; tested in HEK293 cells; about a fifth of its hits are not listed in these tables; further: on the % scale 0 is the no-effect control and ±100 the full control effect; luciferase read-out
Lassa entry inh – blocks Lassa virus binding to or entry into cells; Lassa virus pseudotype entry inhibition, cell reporter; control for the full effect not named in the record; Potency, µM (highest dose often 37.9 µM), inactives show top-dose activity change, negative = inhibition, most hits filed as inhibitors; 300,000 compounds, 1.2% hits; AID 540256; active means well fitted inhibition curve with a large enough effect; inconclusive means small, poorly fitted or top-dose-only effect, or effect the other way; inactive means flat fitted curve, though single readings scatter; tested in HEK293 cells; further: on the % scale 0 is the no-effect control and ±100 the full control effect; nearly all actives have a fitted effect of over 50% in size; luciferase read-out
Cruzain Triton – blocks cruzain activity in presence of Triton detergent | P25779 | 200,000 compounds, 0.43% hits | AID 1478 | Potency, µM, inactives show max response, negative = inhibition, usual class: inhibitors | purified cruzain, Z-FR-AMC fluorescence, 0.01% Triton; active means well fitted curve in the direction sought with a large enough effect; inconclusive means small, poorly fitted or top-dose-only effect, or another doubt; inactive means no such curve, though single readings can be large; an effect the other way counts as inactive or inconclusive;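 further: plate controls were neutral wells for no effect and buffer without enzyme for full effect; nearly all actives have a fitted effect of over 40% in size; top concentration of the series not given in the record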
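Detergent-containing run (0.01% Triton X-100) in acetate buffer pH 5.5 with 5 mM DTT: enzyme at 1.5 nM final, 15 min compound preincubation at room temperature, then 2 uM Z-FR-AMC substrate. Activity taken as 60 s fluorescence increase at 360/450 nm.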
2A StopGo – FMDV 2A StopGo reporter, luciferase signal. human cells with a luciferase reporter of 2A StopGo recoding; control for the full effect not named in the record. Potency, µM (doses to about 57.9 µM), for inactives: at the top dose signal change, negative = less light. 410,000 compounds, 1.2% hits. AID 1159524; active = well fitted falling curve with a large enough effect; inconclusive = small, poorly fitted or top-dose-only effect; inactive = no such curve, though single readings can be large or run the other way; tested in HEK293T cells; further: on the % scale 0 is the no-effect control and ±100 the full control effect; nearly all actives have a fitted effect of over 45% in size; luciferase light after 4 h
NS1 inh – inhibitors of influenza NS1 protein function; 270,000 compounds, 0.4% hits; Potency, µM (top dose mostly 46.1 µM), for the others: top-dose activity, positive = more growth; S. cerevisiae slowed by influenza A NS1, growth recovery by OD600; further: actives are rising curves; nearly all actives have a fitted effect of over 50% in size
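In this qHTS, NS1 from influenza A is expressed in budding yeast, where it slows growth. Cells are switched from glucose to 2% galactose medium (pH 6.0, -URA), treated with compound, and growth recovery is read at OD600.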
RE007 growth inh – less growth of the S. pombe RE007 Vpr strain; 360,000 compounds, 0.21% hits; AID 651644; Potency, µM (series often up to 92.2 µM), for the others: at the top dose activity change, negative = less growth; S. pombe RE007 Vpr strain, BacTiter-Glo ATP luminescence, 24 h; control for the full effect not named in the record; active = well fitted falling curve with a large enough effect; inconclusive = small, poorly fitted or top-dose-only effect; inactive = no such curve, though single readings can be large or run the other way;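 further: on the % scale 0 is the no-effect control and ±100 the full control effect; nearly all actives have a fitted effect of over 50% in size; the assay follows cell death caused by Vpr and the record does not say whether a fall means rescue or toxicity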
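Fission yeast strain RE007, carrying one chromosomally integrated HIV-1 vpr copy, was seeded at OD 0.01 in PMG+AL medium with 23 nL pinned compound. After 24 h at 30 °C and 99% humidity, viability was read by BacTiter-Glo luminescence.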
SARS PLP yeast – SARS-CoV PLP inhibition in yeast | S. cerevisiae expressing SARS-CoV PLpro, growth rescue; control for the full effect not named in the record | Potency, µM (titrated, usually from 32.9 µM), inactives show top-dose activity, positive = growth rescue | 330,000 compounds, 0.19% hits | AID 485353; further: 0% is about no effect; nearly all actives have a fitted effect of over 55% in size; growth read by luminescence after 48 h
Starred values were filed as active, the others as inactive; ? = inconclusive; . = not tested or not shown; & = joins results of further samples; [ ] = remark or other dose. Unless noted, the call rests on the fitted dose curve; in most records, active means well fitted rising curve with a large enough effect; inconclusive means small, poorly fitted or top-dose-only effect; inactive means no such curve, though single readings can be large or run the other way. Potency means the concentration at half of the fitted maximal effect.

Start of the listing, in advance, twelve compounds:
SMILES	Cruzain noTriton	Marburg entry inh	Lassa entry inh	Cruzain Triton	2A StopGo	NS1 inh	RE007 growth inh	SARS PLP yeast
CCOc1cc(/C=C2/NC(=O)NC2=O)cc([N+](=O)[O-])c1O	.	4%[46.1 µM]	1%	.	?	9%	-18%	0%
COC(=O)c1ccc(NC(=O)CSc2ccc(-c3sc(-c4ccccc4)nc3C)nn2)cc1	-5%	.	?	-1.6%	5%	.	.	.
Cc1nc(NC(=O)CN(C)S(=O)(=O)c2ccc(Br)cc2)sc1C	-1%	7%	?	-1.3%	-2%	-1%	0%	8%
Cc1cc(=O)oc2ccc(OC(=O)CN3C(=O)c4cccc([N+](=O)[O-])c4C3=O)cc12	-6%	16%	2%	-7.3%	26%	23%	-1%	-15%
Cc1ccc(NC(=O)Nc2cnccn2)cc1Cl	.	?	-21%	.	-1%	.	0%	-4%
CCCCOCCCNC(=O)c1ccccc1OCC	7%	-20%	-7%	0.4%	.	-4%	-1%	-2%
COc1cc(/C=N/n2cc(-c3ccccc3)[nH]c2=S)cc(OC)c1O	.	.	.	.	10%	3%	18%	-3%
CCC(C)[C@H](NC(=O)C1CCN(C(=O)[C@H](Cc2ccccc2)NS(=O)(=O)c2ccc(C)cc2)CC1)C(=O)O (stereo not given in full)	.	?	3%	.	6%	-2%	-8%	13%
Cc1cc2ccccc2n1CCNC(=O)C(C)Oc1ccccc1 (stereo not given)	-4%	.	.	-2.8%	-4%	?	5%	-15%
CCN(CC)c1ncc(C#N)c(N)n1	.	-5%[46.1 µM]	-16%	.	9%	5%	-1%	0%
O=c1oc2ccccc2c(Nc2ccc3ncccc3c2)c1[N+](=O)[O-]	-1%	?	2%	-17%	2%	18%	-5%	4%
O=C1CC(c2ccc(F)cc2F)c2cc3c(cc2N1)OCO3 (stereo not given)	-5%	?	?	-0.7%	?	.	.	.

Results, from the start:
SMILES	Cruzain noTriton	Marburg entry inh	Lassa entry inh	Cruzain Triton	2A StopGo	NS1 inh	RE007 growth inh	SARS PLP yeast
CCOc1cc(/C=C2/NC(=O)NC2=O)cc([N+](=O)[O-])c1O	.	4%[46.1 µM]	1%	.	?	9%	-18%	0%
COC(=O)c1ccc(NC(=O)CSc2ccc(-c3sc(-c4ccccc4)nc3C)nn2)cc1	-5%	.	?	-1.6%	5%	.	.	.
Cc1nc(NC(=O)CN(C)S(=O)(=O)c2ccc(Br)cc2)sc1C	-1%	7%	?	-1.3%	-2%	-1%	0%	8%
Cc1cc(=O)oc2ccc(OC(=O)CN3C(=O)c4cccc([N+](=O)[O-])c4C3=O)cc12	-6%	16%	2%	-7.3%	26%	23%	-1%	-15%
Cc1ccc(NC(=O)Nc2cnccn2)cc1Cl	.	?	-21%	.	-1%	.	0%	-4%
CCCCOCCCNC(=O)c1ccccc1OCC	7%	-20%	-7%	0.4%	.	-4%	-1%	-2%
COc1cc(/C=N/n2cc(-c3ccccc3)[nH]c2=S)cc(OC)c1O	.	.	.	.	10%	3%	18%	-3%
CCC(C)[C@H](NC(=O)C1CCN(C(=O)[C@H](Cc2ccccc2)NS(=O)(=O)c2ccc(C)cc2)CC1)C(=O)O (stereo not given in full)	.	?	3%	.	6%	-2%	-8%	13%
Cc1cc2ccccc2n1CCNC(=O)C(C)Oc1ccccc1 (stereo not given)	-4%	.	.	-2.8%	-4%	?	5%	-15%
CCN(CC)c1ncc(C#N)c(N)n1	.	-5%[46.1 µM]	-16%	.	9%	5%	-1%	0%
O=c1oc2ccccc2c(Nc2ccc3ncccc3c2)c1[N+](=O)[O-]	-1%	?	2%	-17%	2%	18%	-5%	4%
O=C1CC(c2ccc(F)cc2F)c2cc3c(cc2N1)OCO3 (stereo not given)	-5%	?	?	-0.7%	?	.	.	.
O=C(NCc1ccccc1Cl)c1cc(-c2ccccc2)n[nH]1	-6%	.	-10%[46.1 µM]	-11%	49%[activator]	.	.	.
O=C(NCCc1ccc(Cl)cc1)C1(c2ccccc2)CC1	.	.	.	.	-10%	4%	-7%	2%
O=C(NC1CCCN(Cc2ccccc2F)C1)c1cccc(N2CCCC2=O)c1 (stereo not given)	.	.	.	.	23%	14%	-5%	5%
CC(=O)N1c2ccc(S(=O)(=O)N3CCC(C(=O)NCc4ccc(C)cc4)CC3)cc2CC1C (stereo not given)	.	-25%[46.1 µM]	-4%[46.1 µM]	.	-4%	1%	10%	-1%
O=C(COc1ccccc1)NC1=NCCS1	2%	12%	?	-4.0%	34%[activator]	-6%	15%	-4%
O=C(Cc1ccccc1F)Nc1ccc(S(=O)(=O)N2CCCCC2)cc1	.	0%[46.1 µM]	2%[46.1 µM]	.	5%	0%	9%	0%
O=C(CCc1ccccc1)NNC(=O)c1cccc(F)c1	.	3%[46.1 µM]	-2%[46.1 µM]	.	14%	.	19%	-1%
CC(CC1C(C#N)=C(N)SC(N)=C1C#N)c1ccccc1 (stereo not given)	-3%	-22%	-13%	-13%	-3%	3%	-25%	-3%
O=C(Cc1cccs1)N1CCCC(c2nc(-c3ccc(S(=O)(=O)N4CCCC4)cc3)no2)C1 (stereo not given)	18%	-24%	?	-1.3%	?	4%	6%	6%
CCC(=O)N1CCc2cc(S(=O)(=O)CCC(=O)N3CCN(c4ccc(F)cc4)CC3)ccc21	.	.	.	.	?	1%	-14%	3%
COC(=O)C1=C(NC(=O)c2ccc(C)c(C)c2)CCS1	-5%	11%	-40%	-2.5%	39%[activator]	-7%	-7%	-3%
COc1ccccc1C(CNC(=O)C(C)Oc1ccc(Br)cc1)N1CCCC1 (stereo not given)	.	?	?	.	14%	.	-11%	-3%
COc1ccc(-n2cc(C(=O)N(CCN(C)C)Cc3ccccc3)c3ccccc3c2=O)cc1	-29%	.	-2%[46.1 µM]	-2.9%	-21%	.	.	.
(continued)
SMILES	Cruzain noTriton	Marburg entry inh	Lassa entry inh	Cruzain Triton	2A StopGo	NS1 inh	RE007 growth inh	SARS PLP yeast
Cn1c(=O)[nH]c(=O)c2c1nc(CN1CCN(c3ccc(F)cc3)CC1)n2CCCc1ccccc1	?	2%&-5%	-40%[14.3 µM]	-1.4%	-14%	-10%	-3%	-1%
O=C1OCCC1Sc1nnc(-c2ccc3c(c2)OCO3)n1-c1ccccc1 (stereo not given)	-7%	2%	?	1.5%	5%	-8%	-10%	-1%
COc1cc(-c2cc3n(C)c(C)c(CCC(=O)O)c(=O)n3n2)cc(OC)c1OC	-10%	7%[46.1 µM]	-1%[46.1 µM]	-3.0%	-5%	.	.	.
CN(CC(=O)Nc1cccc(F)c1)C(=O)C1CC(=O)N(CCc2ccccc2)C1 (stereo not given)	.	3%	14%	.	10%	.	5%	0%
Cc1ccc(NC(=O)C(=O)NCC(c2cccnc2)N2CCOCC2)cc1 (stereo not given)	5%	.	-17%[46.1 µM]	-2.7%	?	.	.	.
Cc1ccc(C)c(COC(=O)c2cc(S(=O)(=O)N3CCCCC3)ccc2N2CCOCC2)c1	.	?	7.1µM*	.	-27%	.	-11%	-2%
CCOc1ccc(N(CC(=O)NCCCOC)S(C)(=O)=O)cc1	1%	8%	3%	4.5%	-24%	8%	3%	1%
Cc1c(NC(=S)NC(=O)COc2ccccc2)c(=O)n(-c2ccccc2)n1C	-3%	-6%	3%	-4.5%	-15%	5%	8%	6%
O=C(Cn1cnc2c(nc3n2CCCCC3)c1=O)Nc1cccc(C(F)(F)F)c1	.	.	.	.	-18%&-20%	11%	2%	26%
CCn1ncc(Br)c1C(=O)Nc1ccc(OC(F)(F)F)cc1	.	.	.	.	-12%	3%	-12%	-1%
CCNC(=O)Nc1cc2nc(C)n(Cc3ccc(Br)cc3)c2nc1C	28%	23%	-4%	1.7%	-21%	-8%	8%	6%
CC1CCCCN1Cc1ccc(N)cc1 (stereo not given)	-20%	0%	1%	2.6%	-12%	10%	-11%	12%
COCCNC(=O)c1ccc(N(C)S(=O)(=O)c2ccc(OC)c(OC)c2)cc1	3%	2%	-1%	2.0%	-10%	-5%	6%	12%
CCOc1ccccc1N=C1NC(=O)CS1	-4%	-6%&-6%	-6%	3.3%	-14%	12%	1%	-2%
Cc1ccc(NC(=O)COC(=O)c2ccc(CN3CCCC3=O)cc2)cc1C	.	5%	3%	.	-20%	.	-27%	0%
Cc1ccccc1C(=O)c1cccn1CC(=O)NCc1ccccc1Cl	.	.	.	.	37%[activator]	-6%	11%	0%
CCC(OC(=O)c1nsc(Cl)c1Cl)C(=O)NC(C)(C)CC (stereo not given)	.	25%[46.1 µM]	6%	.	-9%	-5%	14%	-1%
COC(=O)CCC(=O)Nc1ccc(S(=O)(=O)N2CCCCCC2)cc1	1%	1%	14%	-0.4%	-7%	-9%	-6%[3.69 µM]	-3%
Cc1cc(C)c2[nH]c(=O)c(C(c3nnnn3CC3CCCO3)N3CCC(C)CC3)cc2c1 (stereo not given)	?	?	-8%	-4.0%	0%	-20%	2%	-6%
N#Cc1ccsc1NC(=O)CCS(=O)(=O)c1ccccc1	.	.	.	.	-11%	-3%	8%	18%
Cc1cc(C)n(-c2c(F)c(F)c(CN3CCCCC3)c(F)c2F)n1	6%	8%	4%	1.2%	-27%	-1%	-5%	11%
CCc1ccc(-n2c(Cc3ccccc3)n[nH]c2=S)cc1	.	-1%	-11%	.	-9%	11%	-4%	1%
COC(=O)Cn1c(=NC(=O)c2nc3ccccc3s2)sc2cc(S(C)(=O)=O)ccc21	17%	19%	18%	-8.3%	.	8%	.	14%
CCOc1ccc(-n2ccnc2SCC(=O)Nc2cc(C)ccc2C)cc1	-8%	.	-6%[46.1 µM]	-1.1%	-22%	.	.	.
